# NPYLR7 agonist: agonists of mosquito NPYLR7 receptor, primary screen, cell-based, Aedes aegypti, calcium fluorescence, mosquito biting behavior; AID 1259423, 2018; Aedes aegypti neuropeptide Y-like receptor 7 (NPYLR7); 270,000 compounds, 0.15% hits; HEK293T NPYLR7/Galpha15, GCaMP6s calcium fluorescence; activation, % at 10 µM; in the data active = activation above about 40%;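 note: 0% = vehicle and 100% = reference agonist at the receptor; some compounds past the cut are filed as inactive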
# NPYLR7 agonist max-min: also measured in NPYLR7 agonist; calls as there; activation, %; measured here: Max-Min RFU normalised activation; some inactives read as strong as hits;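 span of the calcium signal over five minutes; 0% = vehicle and 100% = native peptide agonist; compound fluorescence can raise it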
# * marks the source's active call; other numbers are inactive results; & = joins results of further samples. The list is partial (hit frequency here may not be typical).
# Order of values – NPYLR7 agonist, NPYLR7 agonist max-min
- CC1C(=O)CC(c2ccccc2)N(C)C1c1ccccc1 (stereo unspecified)
    -2, 7
- Cc1cccc(CNC2CCN(Cc3ccccc3)C2)c1 (stereo unspecified)
    9, 8
- O=C1CN(Cc2ccco2)C2CS(=O)(=O)CC2N1c1cccc(Cl)c1 (stereo unspecified)
    6, 5
- OCCNc1ncnc2ccc(Br)cc12
    4, 1
- COCCOCC(=O)N1CCN(Cc2cccc(-c3noc(-c4cccnc4)n3)c2)CC1
    4, 3
- O=C(C=Cc1cn(Cc2ccccc2)nn1)N1CCN(S(=O)(=O)c2ccccc2Cl)CC1
    8, 11
- FC(F)(F)c1ccc(Oc2nc3ccccc3o2)cc1
    2, 1
- COc1cccc(-c2nccc3[nH]nc(-c4ccccc4)c23)c1
    7, 4
- O=S(=O)(NCc1c(F)cccc1F)C1CC1
    5, 8
- Cc1cccnc1C(NC(=O)C1CCN(CCCN2CCOCC2)CC1)c1ccc(Cl)cc1 (stereo unspecified)
    -9, -11
- Cc1cccc(-n2c(CNC(=O)c3ccc(S(=O)(=O)N(C)C)cc3)nnc2SCC(=O)Nc2nnc(C)s2)c1
    -3, 7
- Cc1cc(C(=O)COC(=O)CCCc2c[nH]c3ccccc23)c(C)n1Cc1ccco1
    4, 1
- Cc1cc(C)c2nc(N(CCn3cccn3)C(=O)c3cccc(N4C(=O)CCC4=O)c3)sc2c1
    -20, -23
- CCOc1cc(S(=O)(=O)NCc2ccco2)c(OCC)cc1C
    -1, -7
- Cc1cc(F)ccc1NC(=O)CCC1CCCN(C(=O)CCc2cccc(Cl)c2)C1 (stereo unspecified)
    -2, -7
- CCc1nc2ccc(C(=O)NCc3ccc(OC)cc3)cn2c1N(C)Cc1nccs1
    7, 6
- CCOC(=O)N1CCN(C(=O)Cn2c(-c3ccccn3)nc3ccccc32)CC1
    -5, -13
- O=C(CCc1ccc(F)c(F)c1)Nc1ccc2oc(=O)[nH]c2c1
    -2, -2
- Cc1nn(C)c(N2CCOCC2)c1CN1C[C@H](N)C[C@H]1C(=O)NC(C)C
    14, 0
- CC(C)Oc1ccc(C(=O)N2CCn3c(nnc3C(N)=O)C2)cc1
    7, 4
- CCN(CC)C(=O)CN1CCN(C(=O)c2cn(CC)cc3c(=O)n(-c4ccccc4)nc2-3)CC1
    -2, -6
- CC(CC(=O)N1CCOC(C)C1)NC(=O)c1ccccc1 (stereo unspecified)
    7, 5
- O=S(=O)(Cc1ncc(-c2cccc(F)c2)o1)CC1CCCO1 (stereo unspecified)
    2, 1
- COCc1c(C(=O)NCC(F)(F)F)sc2ccccc12
    3, 5
- COc1cccc2sc(N(CCN(C)C)C(=O)c3cc(C)nn3C)nc12
    0, 0
- CC(=NN1CCN(Cc2ccccc2Cl)CC1)c1ccc([N+](=O)[O-])cc1
    -4, -9
- Cc1cc(C)c(NC(=O)C2=CC=CN3CCS(=O)(=O)N=C23)c(C)c1
    -6, 2
- CCCCOc1ccc(C(=O)N(CCOC)CC(=O)N2CC(=O)N(c3ccc(Cl)cc3)C2)cc1
    2, 9
- O=C1c2cccc3cccc(c23)C(=O)N1CCCCCc1n[nH]c(=S)o1
    2, -1
- CCOc1cccc(NC(=O)C2CC(=O)N(C)C(=Nc3ccc(C(=O)OC)cc3)S2)c1 (stereo unspecified)
    0, 0
- CCOCCCn1c(SCc2c(F)ccc(F)c2Cl)nc2cc(S(=O)(=O)N3CCOCC3)ccc21
    14, 6
- CCn1nccc1NC(=O)c1nn(-c2ccccc2)c(=O)c2ccccc12
    9, 8
- COc1ccc2[nH]c(=O)c3c(c2c1)OC(C)(C)C=C3
    2, 1
- C[C@@H](NC(=O)Nc1ccc(OC(F)F)cc1)C(=O)N1CCC(C(=O)N2CCOCC2)CC1
    37, 37
- O=[N+]([O-])c1ccc(N2CCN(c3nc(Cc4ccc(F)cc4)ns3)CC2)cc1
    19, 28
- COCCn1c(C)cc(O)c(C(c2ccccc2OC)N2CCCCC2)c1=O (stereo unspecified)
    10, 1
- COc1ccc(-n2c(C)cn3c4c(=O)[nH]c(=O)n(C)c4nc23)cc1Cl
    12, 9
- CCc1[nH]c2c(CNC(=O)Nc3c(C)noc3C)cc(C)cc2c1C
    0, -3
- CCOc1ccc(NC(=O)CSc2nc3c(cnn3CCO)c(=O)[nH]2)cc1
    4, 6
- C1CCN2C[C@@H]3C[C@H](CN4CCCC[C@@H]34)[C@H]2C1
    8&1, -5&-6
- Cn1cc([N+](=O)[O-])c(C(=O)Nc2ccc3nc(-c4ccccc4)[nH]c3c2)n1
    -20, -24
- C#CCNC(=O)CN1CC2=C(C1=O)C(c1ccccc1Cl)NC(=O)N2CC=C (stereo unspecified)
    1, 5
- CCN(CC(=O)Nc1cccc(F)c1C)Cc1cnn(CC)c1
    -5, -8
- COCCN(Cc1cccs1)C(=O)[C@H](N)c1ccccc1
    4, 1
- COc1ccc(-c2cc(C(F)(F)F)n3nc(C(=O)N4CCN(c5ccccc5Cl)CC4)cc3n2)cc1
    5, 2
- O=C(Nc1cc(Cl)ccc1Cl)c1cccn(OCc2ccccc2)c1=O
    14, 13
- CCCn1nccc1C(=O)N1CCCC(N(C)CCc2ccccc2)C1 (stereo unspecified)
    -4, -7
- CSc1nn(CC(=O)Nc2cccc(C)c2C)c(N)c1S(C)(=O)=O
    1, -6
- Cc1nn2c(NCCN(C)C)cc(C(C)(C)C)nc2c1-c1ccccc1
    -5, -8
- COCCCN(CC(=O)Nc1cc(C(C)(C)C)nn1-c1ccc(C)cc1C)C(=O)Nc1ccc(F)cc1F
    -1, 0
- O=c1[nH]c(CNCc2ccco2)nc2c(Br)cc(Br)cc12
    -4&6, -4&9
- CCOC(=O)c1cc(-c2cccc(NC(=O)c3ccno3)c2)n(-c2ccccn2)n1
    5, 1
- Cc1cccc(NC(=O)c2c(N)n(/N=C\c3ccccn3)c3nc4ccccc4nc23)c1
    4, -3
- CCOC(=O)C1(CC2CC2)CCN(C(=O)c2[nH]c3ccc(Cl)cc3c2C)CC1
    6, 1
- COc1cccc(N2CCN(C(=O)c3ccc4c(=O)nc5c(-c6ccccc6)n[nH]n5c4c3)CC2)c1
    -8, -13
- O=C(CCc1ccccc1)N1CCC2(CC1)C(=O)N(CC(=O)N1CCOCC1)CN2c1ccccc1
    2, 12
- Cc1cccc(C)c1NC(=O)Cn1nc(-c2ccc(F)cc2)c2sc(N3CCOCC3)nc2c1=O
    -4, -8
- O=C(COC(=O)c1ccco1)NC1CCCC1
    6, 11
- Cc1nc(-c2noc(-c3ccncc3)n2)cn1CC(=O)Nc1ccc(Cl)cc1
    -3, -5
- Nc1noc(CCNC(=O)C2(c3cccc(F)c3)CCCC2)n1
    1, 1

# 6 entries from above, sorted by length of the SMILES, low to high.
# Order of values – NPYLR7 agonist, NPYLR7 agonist max-min
- OCCNc1ncnc2ccc(Br)cc12
    4, 1
- Cc1cccc(CNC2CCN(Cc3ccccc3)C2)c1 (stereo unspecified)
    9, 8
- CCCn1nccc1C(=O)N1CCCC(N(C)CCc2ccccc2)C1 (stereo unspecified)
    -4, -7
- CC(C)Oc1ccc(C(=O)N2CCn3c(nnc3C(N)=O)C2)cc1
    7, 4
- CCc1nc2ccc(C(=O)NCc3ccc(OC)cc3)cn2c1N(C)Cc1nccs1
    7, 6
- CCN(CC)C(=O)CN1CCN(C(=O)c2cn(CC)cc3c(=O)n(-c4ccccc4)nc2-3)CC1
    -2, -6

# New compounds follow
# Order of values – NPYLR7 agonist, NPYLR7 agonist max-min
- O=C(NCc1nc(-c2ccccc2)no1)c1csc(Nc2ccccc2)n1
    5, 2
- CC(C)N(CC(=O)N(Cc1ccc(F)cc1)Cc1ccco1)C(=O)Nc1ccccc1C(F)(F)F
    -6, 5
- CSCC(=O)N1CCc2c([nH]c3ccccc23)C1c1c(F)cccc1Cl (stereo unspecified)
    -3, -10
- Cc1ccc(C)c(-n2nnn(C(F)F)c2=S)c1
    3, 1
- COC(=O)c1cc(NC(=O)C2CCCN(C(=O)c3ccco3)C2)ccc1F (stereo unspecified)
    -1, -3
- COc1ccc(NC(=O)CN2C(=O)c3cccc([N+](=O)[O-])c3C2=O)cc1Cl
    -1, -9
- CC(=O)N1CCc2c(sc(NC(=O)/C=C/c3cccc([N+](=O)[O-])c3)c2C(N)=O)C1
    0, -1
- C=C[C@@](C)(O)CCC1C(=C)C[C@H](O)C2C(C)(C)CCCC12C (stereo partly specified)
    -5, -8
- O=C1NC2(CCN(C(=O)Cc3ccccc3)CC2)Nc2ccccc21
    5, 6
- O=c1c(O)c(-c2ccc(O)c(O)c2)oc2cc(O)ccc12
    12, 13
- COC(=O)C1=C(C)N2CCS(=O)(=O)N=C2S1
    10, 6
- O=C1CN(C(=O)c2ccn(-c3ccccc3Cl)n2)c2ccccc2N1
    0, -1
- Cc1ccc(NC(=O)Cn2c3c(cc(C#N)c2=O)C(=O)CC(C)(C)C3)cc1
    1, -4
- COc1ccc(-c2c(C)nn3c2ncc2c(=O)n(-c4ccc5c(c4)OCCO5)ccc23)cc1
    10, 9
- COc1ccc(-c2cc(C(F)(F)F)n3ncc(C(=O)NC45CC6CC(CC(C6)C4)C5)c3n2)cc1
    1, 3
- Cc1nc(CNC(=O)C(c2cccc(Cl)c2)C(C)C)oc1C (stereo unspecified)
    10, 5
- O=C(CCN1CCCCC1)Nc1c2c(cc3c1CCC3)CCC2
    6, 2
- O=C(c1ccc(-c2n[nH]c3c2COc2ccccc2-3)cc1)N1CCc2ccccc2C1
    -3, 4
- O=C(OCCc1cc2cc(Br)ccc2o1)C1CC(=O)N(CC(F)(F)F)C1 (stereo unspecified)
    6, 1
- O=C(CSc1nnc(NC(=O)c2ccccc2[N+](=O)[O-])s1)Nc1nccs1
    -3, -8
- CCOc1ccc(CN(C)C(=O)Nc2cnn(CC(=O)N3CC(C)OC(C)C3)c2)cc1 (stereo unspecified)
    0, -1
- Cc1csc(SCc2cc(=O)c(OC(=O)c3cc4ccccc4oc3=O)co2)n1
    -4, -7
- COCCN(CC(=O)N1CCc2sccc2C1COc1cccc(F)c1)S(=O)(=O)c1ccc(C)cc1 (stereo unspecified)
    0, 6
- N#Cc1ccc(Nc2ccc(N3CCCC3)c(F)c2)nc1
    -22, -22
- C=c1cc(C)n(CC(=O)Nc2cc(C)ccc2C)c(=O)c1=C1N=C(c2ccc(F)cc2)NO1
    0, -2
- CCOC(=O)C1(CCc2ccccc2)CCCNC1 (stereo unspecified)
    5, 3
- CSc1ccc(C(=O)N2CCC(C(Cc3ccc(F)cc3F)N(C)C(=O)C3CC3)CC2)cc1 (stereo unspecified)
    0, -3
- CCc1nc2ccc(C(=O)NCCCN3CCCC3=O)cn2c1N(C)C(=O)C1CCCCC1
    -7, -15
- O=C(C1CCC(CNc2c(N3CCCCC3)c(=O)c2=O)CC1)N1CCCC1 (stereo unspecified)
    -1, 0
- O=C(NCCc1cccc(C(F)(F)F)c1)c1ccc(CSc2ncn[nH]2)o1
    11, -7

# Complete entries, looked up by structure. Order of values: NPYLR7 agonist | NPYLR7 agonist max-min
# Entry for `CCOc1ccc(CN(C)C(=O)Nc2cnn(CC(=O)N3CC(C)OC(C)C3)c2)cc1` (stereo unspecified) = 0 | -1
# Entry for `O=C1CN(C(=O)c2ccn(-c3ccccc3Cl)n2)c2ccccc2N1` = 0 | -1

# (cont.)
# Order of values – NPYLR7 agonist, NPYLR7 agonist max-min
- COCCCNC(=O)C(NC(=O)c1ccc(OC)cc1)C1CCN(C(=O)c2ccc(F)cc2)CC1 (stereo unspecified)
    -4, -6
- Brc1cccc(CNc2nn[nH]n2)c1
    -2, -2
- Cc1cc(N)c2cc(N)ccc2n1
    7, 3
- Cc1cn2c3c(=O)n(CC(N)=O)c(=O)n(C)c3nc2n1C1CCCCC1
    4, 8
- C=CCn1c(=O)c(C(=O)Nc2ccc(O)cc2)c(O)c2ccccc21
    -5, -7
- O=C(NCc1cscn1)C1(c2ccccc2Cl)CCOCC1
    6, 2
- Cn1ccnc1COc1ccc(Cn2c(=O)c(C#N)cn(C3CC3)c2=O)cc1
    3, 3
- COC(=O)c1ccc(NC(=O)Cn2ncn3nc(-c4ccc(F)cc4)cc3c2=O)cc1
    -9, -17
- O=C(Cn1cnc2c(nnn2-c2cccc(F)c2)c1=O)N1CCOCC1
    -6, -8
- CCOC1CC(NC(=O)N(C)C(C)c2cccnc2)C12CCC2 (stereo unspecified)
    3, 1
- CCN(CC)S(=O)(=O)c1ccc2c(c1)nc(SCc1cccc(C)c1F)n2Cc1ccco1
    19, 12
- c1ccc(Cn2c(SCc3nnc(-c4ccccc4)o3)nnc2C2CC2)cc1
    5, 8
- CCN1CCN(C(c2ccc(F)c(F)c2)C2Sc3nc(C)nn3C2=O)CC1 (stereo unspecified)
    -2, -3
- Cn1cc(-c2cc3cnc(Nc4ccncc4)cc3n2Cc2ccccc2)cn1
    7, 17
- COCCCNC(=O)C(C1CCCC1)N1CCN(C(=O)c2c(OC)cccc2OC)CC1 (stereo unspecified)
    -10, -2
- CC(C)(O)C#Cc1ccc(-c2nccn2Cc2ccc(F)cc2)cc1
    26, 18
- O=C(NCc1nnnn1-c1ccc(F)c(F)c1)c1ccccc1
    0, -3
- Cc1cn2c3c(=O)n(Cc4ccccc4F)c(=O)n(C)c3nc2n1Cc1ccccc1
    0, 3
- COc1cc(C(=O)Nc2nc(CN3CCCCC3)cs2)cc(OC)c1Br
    0, -1
- N#CCCn1cc(/C=C/C(=O)N2CC(C(N)=O)Oc3ccccc32)c2ccccc21 (stereo unspecified)
    3, 6
- COc1cc(-c2ccc(=O)n(Cc3cccc4ccccc34)n2)cc(OC)c1OC
    17, 13
- CCCCn1c(N)c(N(CC)C(=O)C(C)(C)C)c(=O)[nH]c1=O
    0, 3
- CCOc1ccc(C(C2Sc3nc(CC)nn3C2=O)N2CCC(C(=O)OC)CC2)cc1 (stereo unspecified)
    -2, 1
- CCn1ccnc1CN(C)C(=O)c1cc(COc2ccc(Cl)cc2OC)on1
    1, -2
- Fc1cccc(F)c1CSc1nc(Oc2ccccc2Cl)cc(C(F)(F)F)n1
    3, 9
- COc1cccc(C(=O)Nc2c(-c3ccc(F)cc3)nc3cc(C)ccn23)c1
    6, 11

# Screens as filed in PubChem.
